Mtb H37Rv – Confirmatory growth inhibition assay against Mycobacterium tuberculosis H37Rv, potency (AID 1949); most inactive calls were filed without a number and no value below 0 was filed; 100,000 tested, 1.6% active; inhibition, % at 10 µg/mL, or IC50 in µg/mL where a hit was titrated;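 active = confirmed in a dose series; inconclusive = about 50% or more but not retested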;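 also: bacteria grown 7 days with compound before Alamar blue readout; 0% = untreated bacteria and 100% = reference antibiotic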
Numbers without * were called inactive.

Sample of the layout (4 entries):
CC12CCC(c3nc4cc([N+](=O)[O-])ccc4nc31)C2(C)C (centres undefined) was read as Mtb H37Rv inactive.
For CCCSc1nc2c(c(=O)[nH]1)C(c1ccc3c(c1)OCO3)C1=C(CCCC1=O)N2 (centres undefined) the results were Mtb H37Rv inactive.
Screening O=C(CN(Cc1ccccc1)S(=O)(=O)c1ccc(Cl)cc1)N1CCCC1 returned Mtb H37Rv inactive.
`CCCCn1cnc2scc(-c3ccc(OCCC)cc3)c2c1=O` gave Mtb H37Rv inactive.

The whole of this part, from the start:
CC12CCC(c3nc4cc([N+](=O)[O-])ccc4nc31)C2(C)C (centres undefined) was read as Mtb H37Rv inactive.
For CCCSc1nc2c(c(=O)[nH]1)C(c1ccc3c(c1)OCO3)C1=C(CCCC1=O)N2 (centres undefined) the results were Mtb H37Rv inactive.
Screening O=C(CN(Cc1ccccc1)S(=O)(=O)c1ccc(Cl)cc1)N1CCCC1 returned Mtb H37Rv inactive.
`CCCCn1cnc2scc(-c3ccc(OCCC)cc3)c2c1=O` gave Mtb H37Rv inactive.
Screening COc1cc2c(cc1NCc1ccccn1)oc1ccccc12 returned Mtb H37Rv 35.7%.
COc1ccc(CCNC(=S)Nc2cccc(F)c2)cc1OC was read as Mtb H37Rv inactive.
For CCc1ccccc1NC(=O)CNC(=O)c1ccc(Br)cc1 the results were Mtb H37Rv inactive.
`O=C1N=c2ccc(Br)cc2=C1c1c(O)n(Cc2ccccc2)c2ccccc12` gave Mtb H37Rv inactive.
`COc1ccc(-n2nc3cc(C)c(NC(=O)c4ccccc4Cl)cc3n2)cc1` gave Mtb H37Rv 7.3%.
`CCn1c(SCC(=O)Nc2cc(C)cc(C)c2)nnc1C(CC(C)C)NC(=O)c1ccc(Cl)cc1Cl` (centres undefined) gave Mtb H37Rv 36.2%.
For O=C(OCc1ccc(S(=O)(=O)c2ccccc2)cc1)c1ccccc1Br the results were Mtb H37Rv 8.37µg/mL*.
For COc1ccc(C)cc1NC(=O)c1ccc(Br)o1 the results were Mtb H37Rv inactive.
`Cc1cc(Br)cc(C)c1OCC(=O)Nc1sc(C)c(C)c1C(N)=O` gave Mtb H37Rv inactive.
O=C(Cc1ccccc1)NC1(Cc2ccc(O)cc2)CCCCC1 was read as Mtb H37Rv inactive.
Screening CS(=O)(=O)N(CC(=O)O)c1ccc(F)c(Cl)c1 returned Mtb H37Rv inactive.
Cc1nonc1OCCNc1cc(N2CCOCC2)ccc1[N+](=O)[O-] was read as Mtb H37Rv inactive.
Screening Cc1ccccc1CNC(=O)c1ccco1 returned Mtb H37Rv inactive.
`O=C(NCc1ccco1)Nc1ccc2nc(-c3cccs3)c(-c3cccs3)nc2c1` gave Mtb H37Rv inactive.
Screening COC(=O)NCc1ccc(Cl)c(Cl)c1 returned Mtb H37Rv inactive.
Screening O=C(Nc1nnc(C(F)(F)F)s1)c1ccc(F)cc1 returned Mtb H37Rv 40.1%.
Cc1cc(F)ccc1S(=O)(=O)N1CCCCC1 was read as Mtb H37Rv inactive.
Screening CN(C)CCCNC(=O)CC(c1ccccc1)c1ccccc1O (centres undefined) returned Mtb H37Rv inactive.
`Cc1ccc(NC(=O)CSc2ncnc3sc(C)c(C)c23)cc1` gave Mtb H37Rv inactive.
Screening COc1ccc(C(=O)NC(=S)Nc2ccc(NC(=O)c3cccc(Cl)c3)cc2)cc1Br returned Mtb H37Rv inactive.
`O=C(CN1CCCCCC1)Nc1nc(-c2ccccc2)cs1` gave Mtb H37Rv 11.9%.
For CCC1(CC)C(=O)NC(=S)N(C)C1=O the results were Mtb H37Rv inactive.
Screening Cc1ccc(C)c(N2C(=O)c3cccc4c([N+](=O)[O-])ccc(c34)C2=O)c1 returned Mtb H37Rv 0.76µg/mL*.
CCOC(=O)C1=C(c2ccccc2)NC(=S)NC1c1ccc(OCc2ccccc2)c(OC)c1 (centres undefined) was read as Mtb H37Rv inactive.
Screening CCn1ccc(C(=O)Nc2nccs2)n1 returned Mtb H37Rv inactive.
`COc1ccccc1N1CCN(C2CCN(C(=O)c3cccc4ccccc34)CC2)CC1` gave Mtb H37Rv 1.4%.
O=C(Oc1ccc(Cl)cc1Br)c1cccs1 was read as Mtb H37Rv 0.3%.
COc1cc(OC)cc(-c2nc(-c3ccccc3)no2)c1 was read as Mtb H37Rv inactive.
Screening CCOC(=O)c1c(NC2=NS(=O)(=O)c3ccccc32)sc(C)c1C returned Mtb H37Rv inactive.
Screening COc1ccc(NC(=O)c2ccccc2OCC(=O)c2ccc3c(c2)CCCC3)c(C)c1 returned Mtb H37Rv inactive.
Screening Cc1ccc(-c2nnc(SCC(=O)N(C)c3nc4ccc(Cl)c(C)c4s3)o2)cc1 returned Mtb H37Rv inactive.
For CCCC(=O)Nc1ccc(Cl)c(NC(=O)c2cccnc2)c1 the results were Mtb H37Rv inactive.
Screening Cc1cccc(NC(=O)CSc2n[nH]c(-c3ccco3)n2)c1 returned Mtb H37Rv inactive.
For S=C(c1ccc(OCc2cccc3ccccc23)cc1)N1CCOCC1 the results were Mtb H37Rv inactive.
For Cc1cc(C(=O)Nc2ccc(CN3CCOCC3)cc2)ccc1[N+](=O)[O-] the results were Mtb H37Rv inactive.
CN1CCN(C(=O)N2CCOCC2)CC1 was read as Mtb H37Rv inactive.
For CCOc1ccc(NC(=O)c2cc(-c3cccs3)nc3ccccc23)cc1 the results were Mtb H37Rv 42.6%.
For CC(C)(C)c1ccccc1NC(=O)CN1C(=O)c2ccccc2C1=O the results were Mtb H37Rv inactive.
`O=C(CSCc1ccccc1Cl)Nc1ccc(C(=O)O)cc1` gave Mtb H37Rv inactive.
CC1CCCCN1C(=O)Cc1ccc(Br)cc1 (centres undefined) was read as Mtb H37Rv inactive.
CC(C)C(=O)N1CCN(c2ccc(NC(=S)NC(=O)c3cc4ccccc4o3)cc2)CC1 was read as Mtb H37Rv inactive.
For CC(C)CNC(=O)c1ccccc1NC(=O)CN(c1ccc(Cl)c(C(F)(F)F)c1)S(C)(=O)=O the results were Mtb H37Rv 3.4%.
Screening COc1ccc(C(C)(C)C)cc1NC(=O)c1ccco1 returned Mtb H37Rv 1.1%.
`Cc1cccc(/C(N)=N/OC(=O)CCC2CCCCC2)c1` gave Mtb H37Rv inactive.
COc1c(C)cccc1C(=O)Nc1ccccc1Br was read as Mtb H37Rv 9.6%.
Screening O=Cc1ccc(OCc2ccc(Br)cc2)cc1 returned Mtb H37Rv inactive.
For Nc1ccccc1SCC(=O)Nc1nccs1 the results were Mtb H37Rv 1.7%.
CCN(C(=O)c1cc2c(n(-c3ccc(Cl)cc3)c1=O)CC(C)(C)CC2=O)c1ccccc1 was read as Mtb H37Rv inactive.
`Cc1cc(C(=O)NC(C)C(C)(C)C)no1` (centres undefined) gave Mtb H37Rv inactive.
`Cc1ccc(CNc2ccc(N3CCOCC3)cc2)cc1` gave Mtb H37Rv inactive.
For O=C(Cc1cccs1)NC1CCCc2ccccc21 (centres undefined) the results were Mtb H37Rv inactive.
Screening COC(=O)c1ccc(C(=O)OC)c(NC(=O)CCCOc2ccc(Cl)cc2C)c1 returned Mtb H37Rv inactive.
`Cc1ccc(C(=O)Nc2ccc(N3CCN(S(C)(=O)=O)CC3)cc2)cc1[N+](=O)[O-]` gave Mtb H37Rv inactive.
For Cc1ccc(C(=O)CSc2nnc(-c3ccccc3[N+](=O)[O-])o2)cc1 the results were Mtb H37Rv inactive.
Cc1ccc2c(c1)C(O)(C(C)C(=O)c1ccc(Cl)cc1)C(=O)N2 (centres undefined) was read as Mtb H37Rv inactive.
COc1cc(C(=O)Nc2cc3nn(-c4ccccc4)nc3cc2C)cc(OC)c1OC was read as Mtb H37Rv inactive.

Entries listed so far that have an aryl thioether with sulfur outside any ring (seven):
For CCCSc1nc2c(c(=O)[nH]1)C(c1ccc3c(c1)OCO3)C1=C(CCCC1=O)N2 (centres undefined) the results were Mtb H37Rv inactive.
`CCn1c(SCC(=O)Nc2cc(C)cc(C)c2)nnc1C(CC(C)C)NC(=O)c1ccc(Cl)cc1Cl` (centres undefined) gave Mtb H37Rv 36.2%.
`Cc1ccc(NC(=O)CSc2ncnc3sc(C)c(C)c23)cc1` gave Mtb H37Rv inactive.
Screening Cc1ccc(-c2nnc(SCC(=O)N(C)c3nc4ccc(Cl)c(C)c4s3)o2)cc1 returned Mtb H37Rv inactive.
Screening Cc1cccc(NC(=O)CSc2n[nH]c(-c3ccco3)n2)c1 returned Mtb H37Rv inactive.
For Nc1ccccc1SCC(=O)Nc1nccs1 the results were Mtb H37Rv 1.7%.
For Cc1ccc(C(=O)CSc2nnc(-c3ccccc3[N+](=O)[O-])o2)cc1 the results were Mtb H37Rv inactive.

Remaining list, next part
Cc1sc(NC(=O)C(C)Oc2ccc(Cl)cc2Cl)c(C(N)=O)c1C (centres undefined) was read as Mtb H37Rv inactive.
Screening CCOc1cc(C(=O)NC(=S)Nc2ccc(NC(=O)C(C)C)cc2)cc(OCC)c1OCC returned Mtb H37Rv inactive.
For Cc1ccc(NC(=S)c2ccccn2)c(Br)c1 the results were Mtb H37Rv 16.7%.
`CC(C)(C)OC(=O)COc1cc2oc(=O)c3c(c2cc1Cl)CCC3` gave Mtb H37Rv inactive.
`Cc1ccc(Cl)cc1NC(=O)c1ccc(-c2cccc(Cl)c2Cl)o1` gave Mtb H37Rv 1.5%.
Screening C=CCc1ccccc1OCCn1ccnc1 returned Mtb H37Rv inactive.
`COC(=O)c1ccccc1NC(=O)C1CC(=O)N(c2ccccc2)C1` (centres undefined) gave Mtb H37Rv inactive.
CCOC(=O)c1ccc(N2Cc3ccccc3C2)cc1 was read as Mtb H37Rv inactive.
CCOC(=O)c1cnc2c(Cl)c(Cl)ccc2c1NCCO was read as Mtb H37Rv inactive.
Screening O=C(CCN1C(=O)c2cccc3cccc(c23)C1=O)N1CCN(c2ncccn2)CC1 returned Mtb H37Rv inactive.
`O=C(NCCc1ccc(Cl)cc1)c1ccccc1C(F)(F)F` gave Mtb H37Rv 0.3%.
Screening Cc1oc2ccc(OCc3cccc([N+](=O)[O-])c3)cc2c1C(=O)OC(C)C returned Mtb H37Rv inactive.
Screening O=C(Nc1ccccc1)Nc1ccccn1 returned Mtb H37Rv inactive.
O=C(Nc1ccc(F)cc1)c1ccc(OCC(=O)N2CCCCC2)cc1 was read as Mtb H37Rv inactive.
For S=C(NCCC1=CCCCC1)NCC1CCCO1 (centres undefined) the results were Mtb H37Rv inactive.
`Cc1cc(C)nc(N/C(=N/S(=O)(=O)c2ccccc2)N2CCc3ccccc3C2)n1` gave Mtb H37Rv inactive.
`NC(=O)c1c(NC(=O)CCCc2ccccc2)sc2c1CCCCC2` gave Mtb H37Rv inactive.
Screening COc1ccc(C(C)C)cc1S(=O)(=O)n1nc(C)cc1C returned Mtb H37Rv 1.8%.
O=C1CCC2=C1C(c1ccc(O)cc1)c1c(ccc3ccccc13)N2 (centres undefined) was read as Mtb H37Rv 1.9%.
Screening Cc1ccc(S(=O)(=O)Cc2ccccc2Cl)cc1 returned Mtb H37Rv inactive.
`Clc1cc(Br)ccc1OCCOCCN1CCCC1` gave Mtb H37Rv inactive.
CC(C)(C)c1ccccc1NC(=O)CC(c1ccccc1)c1ccccc1 was read as Mtb H37Rv 1.3%.
Cc1ccc(-n2c(-c3ccccc3O)n[nH]c2=S)c(C)c1 was read as Mtb H37Rv inactive.
`COCCCNC(=S)Nc1ccc(CC(=O)O)cc1` gave Mtb H37Rv inactive.
`CCOc1cc(C(=O)Nc2ccc(N3CCN(C(=O)c4ccccc4)CC3)cc2)cc(OCC)c1OCC` gave Mtb H37Rv inactive.
Screening COC(=O)c1cccc(COC(=O)c2cc(=O)[nH]c3ccccc23)c1 returned Mtb H37Rv inactive.
Screening Cc1ccc(OCC(=O)NC(=S)Nc2ccc(N3CCOCC3)cc2)cc1 returned Mtb H37Rv inactive.
CCOc1ccc(NC(=O)C(C)Sc2nc3ccccc3[nH]2)cc1 (centres undefined) was read as Mtb H37Rv inactive.
Screening COc1ccc(N(C(C)C(=O)Nc2ccc(NC(C)=O)cc2)S(C)(=O)=O)cc1 (centres undefined) returned Mtb H37Rv inactive.
For COc1ccc(C(=O)Nc2ccccc2C(=O)NCC2CCCO2)cc1 (centres undefined) the results were Mtb H37Rv inactive.
For CCC(C)c1ccc2oc(-c3ccc(NC(=S)NC(=O)C(C)C)cc3)nc2c1 (centres undefined) the results were Mtb H37Rv 29.1%.
`O=CN1CCN(C(=O)CCc2ccccc2)CC1` gave Mtb H37Rv inactive.
Cc1cc(NC(=O)CSc2nnnn2-c2ccccc2F)no1 was read as Mtb H37Rv inactive.
For CN1CCN(C(=S)Nc2ccc(Br)cc2Cl)CC1 the results were Mtb H37Rv inactive.
COc1ccc(OCCNC(=O)c2ccccc2OCC(=O)N2CCCCC2)cc1 was read as Mtb H37Rv inactive.
Cc1cc(C)nc(/N=C(N)/N=C2\CC(=O)N(c3ccccc3)N2)n1 was read as Mtb H37Rv inconclusive.
Screening O=C(CN1C(=O)c2ccccc2S1(=O)=O)N1CCN(Cc2ccccc2)CC1 returned Mtb H37Rv inactive.
`O=C(CCOc1ccccc1)Nc1ccccc1F` gave Mtb H37Rv 1.7%.
For COc1ccccc1C(=O)Nc1cccc(C(=O)c2ccccc2)c1 the results were Mtb H37Rv 11.7%.
For CC1(C)CC(NC(=S)Nc2ccc(F)cc2)CC(C)(C)N1 the results were Mtb H37Rv inactive.
For CCc1ccc(NC(=O)CSc2nnc(NC(=O)c3ccccc3OC)s2)cc1 the results were Mtb H37Rv inactive.
For COC(=O)c1ccccc1S(=O)(=O)/N=C(\Nc1ccccc1C)c1ccccc1 the results were Mtb H37Rv inactive.
Screening CCOC(=O)c1cnc2ccc(OCC)cc2c1NCCO returned Mtb H37Rv inactive.
CC(Oc1cccc(Cl)c1)C(=O)O/N=C(\N)c1ccccn1 (centres undefined) was read as Mtb H37Rv inactive.
`COC(=O)c1ccc(C(=O)OC)c(NS(=O)(=O)c2ccc(Br)s2)c1` gave Mtb H37Rv inactive.
Screening O=C(CSc1ccc(Br)cc1)Nc1ccc2ccccc2c1 returned Mtb H37Rv inactive.
CCN(C#N)c1nc(NC(C)C)nc(NC(C)C)n1 was read as Mtb H37Rv inactive.
Screening CCOc1ccc(C)cc1S(=O)(=O)NCc1ccco1 returned Mtb H37Rv inactive.
Cc1cc(C(C)(C)C)ccc1OCCN1CCCCC1 was read as Mtb H37Rv 0.6%.
Screening CC(C)CCN1C(=O)c2ccc(C(=O)NC3CCCCC3)cc2C1=O returned Mtb H37Rv inactive.

Source: PubChem

Some of the compounds tested (hit frequency here may not be typical).
